KCNQ2 pot: potentiators of rat KCNQ2 potassium channel; B-score at 10 µM; Potassium voltage-gated channel subfamily KQT member 2 (Rattus norvegicus), O88943; CHO-K1 KCNQ2, FluxOR thallium flux fluorescence; hits give high values; hit rate 0.54% among 310,000; AID 2239, 2010;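 active = fluorescence ratio B-score at least 3 SD of library B-scores, with initial fluorescence B-score within 3 SD, cut at about 5.3 in these data; same plate scores as AID 2156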;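 note: B-score of peak minus minimum over baseline fluorescence ratio after K+ and Tl+ stimulus; positive B-score means potentiation of KCNQ2 with more thallium influx and brighter signal; only the inactives scoring about 0 or higher are listed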
Target sequence (O88943 whole entry, looked up): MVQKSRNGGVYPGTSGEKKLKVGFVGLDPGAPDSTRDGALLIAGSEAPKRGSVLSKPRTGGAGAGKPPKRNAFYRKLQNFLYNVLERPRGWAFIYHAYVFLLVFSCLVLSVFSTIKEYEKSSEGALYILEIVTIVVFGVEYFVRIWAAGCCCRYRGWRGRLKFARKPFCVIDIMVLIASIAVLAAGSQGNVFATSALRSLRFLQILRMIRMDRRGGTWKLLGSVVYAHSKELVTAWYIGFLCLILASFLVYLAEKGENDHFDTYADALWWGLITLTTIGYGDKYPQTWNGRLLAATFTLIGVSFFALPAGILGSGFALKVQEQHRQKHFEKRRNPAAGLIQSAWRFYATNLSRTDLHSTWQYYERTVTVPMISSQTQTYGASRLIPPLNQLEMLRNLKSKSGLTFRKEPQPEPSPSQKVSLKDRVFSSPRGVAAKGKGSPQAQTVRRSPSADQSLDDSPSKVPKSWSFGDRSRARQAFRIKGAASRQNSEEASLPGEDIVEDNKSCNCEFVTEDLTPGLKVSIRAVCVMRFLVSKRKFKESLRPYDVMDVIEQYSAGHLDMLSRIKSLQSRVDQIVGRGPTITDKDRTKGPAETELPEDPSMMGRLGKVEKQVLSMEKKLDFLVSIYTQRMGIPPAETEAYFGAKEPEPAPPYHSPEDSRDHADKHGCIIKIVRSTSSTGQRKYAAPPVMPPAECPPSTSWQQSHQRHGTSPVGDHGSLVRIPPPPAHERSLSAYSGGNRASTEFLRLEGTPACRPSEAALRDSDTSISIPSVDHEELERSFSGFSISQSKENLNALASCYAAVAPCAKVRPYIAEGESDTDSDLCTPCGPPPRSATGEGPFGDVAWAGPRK
KCNQ2 pot baseline: second read-out of KCNQ2 pot, no call of its own (marks repeat the call); B-score; compound at 10 µM; measured here: initial fluorescence intensity artifact check;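 brightness before thallium and not channel activity; 0 = typical well and far values either way flag optical interference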
Numbers without * were called inactive.

KCNQ2 pot | KCNQ2 pot baseline | Molecule
0.34 | -0.06 | C=CCOC(=O)C1=C(C)NC(C)=C(C(=O)OCC=C)C1c1cn(-c2ccccc2)nc1-c1ccco1
1.1 | -1.8 | O=[N+]([O-])c1ccc(N2CCN(CCO)CC2)cc1Sc1ccccn1
0.01 | -0.03 | Cc1ccc(NC(=O)CSc2n[nH]c(-c3ccco3)n2)cc1
0.96 | 0.34 | Cc1sc(NC(=O)/C=C/C(=O)O)c(C(N)=O)c1-c1ccc(C(C)(C)C)cc1
1.6 | -0.39 | O=C(Cc1ccccc1)Nc1c(Cl)ccc2nsnc12
0.67 | 0.04 | O=C(Nc1cc([N+](=O)[O-])ccc1F)c1ccc2ccccc2c1
1.7 | 0.06 | COc1cc(NC(=O)C2=CC(c3cccs3)=NS(=O)(=O)N2C)cc(OC)c1OC
0.14 | -0.28 | COc1cnc(-c2ccccn2)nc1Oc1ccc(C(C)(C)C)cc1
0.67 | 0.01 | O=C(CN1CCN(c2ncccn2)CC1)NCCC1=CCCCC1
0.92 | -0.67 | CCOCCCNC(=O)CSCc1nc(-c2ccc(SC)cc2)oc1C
0.68 | 0.06 | O=c1c2ccccc2c(-c2ccc(Br)cc2)nn1Cc1ccccc1
1.3 | -1.1 | COc1cc(Br)cc(/C=N/NC(=O)Cc2ccc(C(F)(F)F)cc2[N+](=O)[O-])c1O

3 records picked at random from those above:
KCNQ2 pot | KCNQ2 pot baseline | Molecule
0.01 | -0.03 | Cc1ccc(NC(=O)CSc2n[nH]c(-c3ccco3)n2)cc1
1.1 | -1.8 | O=[N+]([O-])c1ccc(N2CCN(CCO)CC2)cc1Sc1ccccn1
1.6 | -0.39 | O=C(Cc1ccccc1)Nc1c(Cl)ccc2nsnc12

Going on with the list:
KCNQ2 pot | KCNQ2 pot baseline | Molecule
0.32 | -0.62 | CNC(=O)CSc1n[nH]c(-c2cc(Cl)ccc2OC)n1
1.4 | 1.1 | CC(C)(C)n1nnnc1C(c1cccnc1)N1CCN(c2ccccc2F)CC1 (centres undefined)
0.71 | 1.4 | COc1ccc(-n2nc(C(=O)NCC(=O)N3CCC(C(N)=O)CC3)c3ccccc3c2=O)cc1OC
0.58 | 2.5 | COc1cccc2c(C)nc(Nc3nc(CSc4nnc(C)s4)cc(=O)[nH]3)nc12
0.5 | 0.01 | C/C(N)=C(/C#N)C(=O)CSc1nc2ccccc2c(=O)n1-c1ccccc1C
0.19 | -0.76 | CC(=O)c1cccc(NC(=O)c2ccccc2OCc2ccc(F)cc2)c1
0.27 | 1.7 | COc1ccc(NC(=S)NC(C)c2ccncc2)cc1OC (centres undefined)
0.14 | -0.86 | CC(C(=O)NCc1ccco1)n1cc(C(=O)c2ccco2)c2ccccc21 (centres undefined)
0.79 | 0.9 | CCCCNC(=O)c1cc(S(=O)(=O)N2CCCCC2)oc1C
2.4 | -0.16 | COc1cc(-c2nn3c(COc4ccccc4)nnc3s2)cc(OC)c1OC
0.42 | 0.04 | O=C(NC1CC2CCCC(C1)N2C(=O)Nc1ccccc1)c1ccncc1 (centres undefined)
1.7 | 0.66 | CCS(=O)(=O)N1CCCC(C(=O)NCCCOC(C)C)C1 (centres undefined)
1 | 0.57 | CCc1ccc(NC(=O)c2cnn(-c3ccccc3)c2C2CCNCC2)cc1
0.01 | -0.68 | Cn1cc(Br)c(C(=O)NN2C(=O)C3C4C=CC(C5CC45)C3C2=O)n1 (centres undefined)
1.3 | -0.86 | O=C(Oc1ccccc1)Oc1ccc2c(c1)oc(=O)c1ccccc12
0.16 | 1.1 | O=C1CC(NS(=O)(=O)c2cc(F)ccc2F)CN1c1cccc(F)c1 (centres undefined)
0.8 | 0.75 | O=C(N1CCCCCC1)N1CCN(S(=O)(=O)N2CCCCC2)CC1
0.92 | -0.47 | COC(=O)c1cccc(Cn2nnc3ccccc3c2=O)c1
3.1 | -1.1 | O=C(Nc1ccc(Br)cc1)c1cccc(N2C(=O)C3CCCCC3C2=O)c1 (centres undefined)
0.31 | -0.09 | Cc1c(C)c2cc(Cl)c(O)c(CN(C)C)c2oc1=O
0.92 | 0.08 | COc1ccc(CCNC(=O)CSc2n[nH]c(N)n2)cc1
0.01 | -1.6 | Cc1ccc(-c2noc(CCC(=O)NC3CC3)n2)cc1
0.02 | 2.9 | CCOc1ccc(C(=O)Nc2cc(C)ccn2)cc1
0.19 | 1.9 | C#CCOCCOCCOCCNc1nc(N2CCN(C(=O)[C@H](Cc3cc4ccccc4[nH]3)n3cc([C@@H](N)C(C)CC)nn3)CC2)nc(N2CCN(C(=O)[C@H](Cc3cc4ccccc4[nH]3)n3cc([C@@H](N)Cc4ccc(O)cc4)nn3)CC2)n1 (some centres undefined)
1.1 | -1.3 | Clc1ccc(CSc2nnc(CN3CCOCC3)n2-c2ccccc2)cc1Cl
0.94 | 0.13 | COC(=O)C[C@H]1c2cc(C(F)(F)F)ccc2S(=O)(=O)N1C1CCCC1
0.46 | -1.3 | Cc1cc2oc(C(=O)Nc3nonc3C)c(C)c2cc1C
1.2 | 4.6 | CCOc1cc(S(=O)(=O)NC2CC(C)(C)NC(C)(C)C2)ccc1F
0.29 | 2.2 | CC1(C)CC(=O)CC(C)(C)N1OC(=O)c1ccncc1
0.08 | 0.42 | Cc1ccc(C(=O)C[n+]2cc(Br)cc(Br)c2)cc1[N+](=O)[O-]
0.05 | -0.61 | O=C(NCC1CCCO1)c1ccccc1-c1nc(-c2ccccc2)no1 (centres undefined)
0.59 | -0.08 | CC(C)(C)NC(=O)C(=O)N/N=C/c1ccc(F)cc1
0.09 | -0.73 | O=C(c1ccc(Cl)cc1)N1CCCC(c2ccccc2)=N1
0.11 | 0.68 | CCN(CC)CCN1C(=O)C(=O)/C(=C(/O)c2cnn(-c3ccccc3)c2C)C1c1ccc(C)o1 (centres undefined)
0.27 | -1.8 | COc1ccc(C(CNC(=O)c2ccc(S(=O)(=O)N3CCCC3)cc2)N(C)C)cc1OC (centres undefined)
0.16 | 0.85 | COc1ccc2c(c1OC)C(=O)OC2n1c(O)c(N=NC(C)=O)c2ccccc21 (centres undefined)
0.14 | 0.56 | CC(CN1CCOCC1)OC(=O)/C=C/c1ccccc1 (centres undefined)
0.69 | 1.4 | COCCCN1C(=O)c2ccc(C(=O)OCC(=O)N(CCC#N)c3cc(C)cc(C)c3)cc2C1=O
4.7 | 0.03 | CC1(C)Cc2nc3oc4c(N(CCO)Cc5ccccc5)ncnc4c3cc2CO1
1.4 | -1.9 | O=C(CCCCCC(=O)N(CCO)CCO)N(CCO)CCO
0.02 | 0.03 | CC1=NN(C(=O)Cc2ccc([N+](=O)[O-])cc2)C(O)(c2ccccc2)C1 (centres undefined)
1.1 | -0.34 | O=C1c2ccccc2-c2cccc(C(=O)N3CCN(C(=O)c4ccccc4)CC3)c21
0.16 | 0.76 | COc1cc(C(C)=O)ccc1OCC(O)CN1CCN(c2ccccn2)CC1 (centres undefined)
1.7 | -0.63 | COc1ccc(NC(=O)c2ccc3c(c2)C(=O)N(Cc2cccnc2)C3=O)cc1
1.5 | 1.9 | O=S1(=O)N=C(c2ccccc2)c2ccccc21
0.81 | -0.01 | O=[N+]([O-])c1ccc2n[nH]nc2c1
4.4 | 1.6 | CCCCC1(c2ccc(F)cc2)NC(=O)N(CC(=O)N2CCN(C(=O)c3ccco3)CC2)C1=O (centres undefined)
0.36 | -1.3 | CSc1ccc(CN(C)CC(=O)Nc2ccc(NC(C)=O)cc2)cc1
2.4 | 0.04 | O=C(CN1CCN(C(=O)c2ccco2)CC1)N1CCc2[nH]c3ccccc3c2C1
1.2 | -0.43 | O=[N+]([O-])c1cccc(/C=C/c2nc[nH]c2[N+](=O)[O-])c1
0.66 | -1 | COc1ccccc1CNC(=O)COC(=O)CSc1ccc(F)cc1
0.21 | 1.4 | Cc1ccc(-c2cn(-c3ccc(SC(F)F)cc3)c3[n+]2CCC3)cc1
0.02 | 1.3 | CC1=NN(c2ccccc2)C(=O)/C1=C/c1ccc[nH]1
0.47 | 0.47 | COc1ccc(CCNc2ccc(C(CC(N)=O)NC(=O)c3cc(OC)ccc3OC)cc2[N+](=O)[O-])cc1 (centres undefined)
1.7 | -1 | Cc1ccccc1CSc1ccc2nnc(-c3ccccn3)n2n1
1.5 | 2.7 | COc1ccccc1N(CC(O)CN1CCC(C)CC1)S(=O)(=O)c1ccccc1 (centres undefined)
0.04 | -0.99 | Oc1ccc(N=Cc2ccc(-c3cccs3)s2)cc1
0.88 | 1.5 | O=C(O)CCc1ccc(-c2ccc(F)cc2)n1CCC(=O)O
2 | -0.88 | Cc1cc(=O)n(C)c2ccccc12
0.94 | 0.38 | Nc1nc(SCCN2C(=O)c3ccccc3C2=O)n[nH]1

Entries of single compounds from above. Screens in order: KCNQ2 pot | KCNQ2 pot baseline
Results for `Cn1cc(Br)c(C(=O)NN2C(=O)C3C4C=CC(C5CC45)C3C2=O)n1` (centres undefined) → 0.01 | -0.68
Results for `Cc1ccc(C(=O)C[n+]2cc(Br)cc(Br)c2)cc1[N+](=O)[O-]` → 0.08 | 0.42

Next part
KCNQ2 pot | KCNQ2 pot baseline | Molecule
0.11 | 0.54 | CCNC(=O)O/N=C(\C)c1sc(-c2ccccc2)nc1C
1.3 | -3.4 | COC(=O)C1=C(C)N(CCCC(=O)O)C(=O)NC1c1ccc(C(F)(F)F)cc1 (centres undefined)
0.09 | 0.03 | CCCCn1ccnc1C
2.2 | -2 | c1cncc(-c2nnc(-c3cccnc3)nn2)c1
1.2 | -0.39 | Clc1cccc(CSc2nnc(-c3c[nH]c4ccccc34)o2)c1
0.53 | -0.71 | Cc1cccc(-n2ncc3c(N(CCO)CCO)ncnc32)c1
1.7 | -0.03 | Cc1ccc(S(=O)(=O)N/N=C/c2cc(Br)ccc2O)cc1
0.32 | -0.06 | Cc1ccc(NC(=O)C2CCCN(S(=O)(=O)c3c(C)noc3C)C2)cc1 (centres undefined)
0.33 | -0.62 | O=c1cc(CN2CCN(c3ccccc3O)CC2)nc2sccn12
1.2 | -0.42 | Cc1ccc(OC(=O)NC2CCS(=O)(=O)C2)cc1C (centres undefined)
0.89 | -0.61 | Cc1ccccc1Nc1c([N+](=O)[O-])cncc1[N+](=O)[O-]
0.32 | 1.7 | O=C(NC(=S)Nn1cnnc1)c1ccc(F)cc1Cl
0.25 | 0 | CC(C)Oc1cccc(C(=O)Nc2ccc(Br)cc2F)c1
0.18 | 0.02 | CCCCS(=O)(=O)Nc1ccc2c(c1)ncn2C1CCCCC1
1.9 | -0.29 | O=C(/C=C/c1ccc(S(=O)(=O)N2CCOCC2)cc1)N(CCO)Cc1ccccc1
0.03 | 0.35 | O=C(CN1C(=O)NC2(CCCC2)C1=O)NCCC1=CCCCC1
0.05 | -0.02 | O=C1NNC(=O)C2C3C=CC(C4CC34)C12 (centres undefined)
0.99 | -0.03 | O=C(COC(=O)CCC(NC(=O)OCc1ccccc1)C(=O)OCC(=O)Nc1ccccc1)Nc1ccccc1 (centres undefined)
0.88 | -0.76 | O=C(CN(C(=O)c1csnn1)c1ccc2c(c1)OCCO2)NCc1ccc(F)cc1
1.5 | 0.02 | COc1ccc(C(=O)Nc2ccc([N+](=O)[O-])cn2)cc1OC
10* | -0.84* | O=C(Nc1cccc(N=Cc2cc(Cl)cc(Br)c2O)c1)c1ccco1
0.03 | 0 | O=C(COC(=O)c1ccccn1)Nc1cccc2ccccc12
0.27 | 2.2 | CCCCNc1c(N)n(CCCC)c(=O)[nH]c1=O
1.9 | -0.51 | CC(NC(=O)N1CCN(c2ccccc2F)CC1)c1ccc(F)c(F)c1 (centres undefined)
0.97 | -1.3 | Cc1c(/C=N/Nc2ccc(C(=O)O)cc2)c2ccccc2n1C
1.3 | -0.47 | CN(Cc1c(C(=O)N/N=C/c2cccc(O)c2)nnn1-c1nonc1N)c1ccccc1
1.6 | 0 | CCN(CC)S(=O)(=O)c1ccc(OC)c(NC(=O)C2CC(=O)N(c3ccc(C)cc3)C2)c1 (centres undefined)
0.07 | -1 | COc1ccc(S(=O)(=O)Nc2ccccc2Cl)cc1NC(C)=O
0.5 | -0.67 | CC1CCCCN1CCNC(=O)c1cnn2ccccc12 (centres undefined)
1.7 | 0.33 | COc1ccc(CNC(=O)C2CCN(C(=O)N(C)C)CC2)c(OC)c1
0.2 | -0.44 | COC(=O)CC1C(=O)NCCN1C(=O)Nc1ccc(Cl)c(Cl)c1 (centres undefined)
1.4 | -0.25 | O=C(CSc1ncccn1)NCC1CCCO1 (centres undefined)
2 | -1.7 | Cc1cccc(CSc2nc3c(c(=O)[nH]2)CCCC3)c1
0.2 | -0.08 | COc1ccc(Br)cc1/C(C)=N/NC1=NCCN1
0.03 | -0.67 | O=C(CSc1nnc(-c2cccs2)o1)N1CCc2ccccc21
0.16 | -0.36 | O=C1CSC(c2cccnc2)N1c1cccc(Cl)c1 (centres undefined)
0.64 | -0.74 | O=C(Cn1cnc(S(=O)(=O)N2CCCC2)c1)Nc1cccc(F)c1
0.55 | 0.49 | O=C(CCC(=O)c1ccc(F)cc1)Nc1cccc(C(F)(F)F)c1
1.1 | 3.1 | COC(=O)C(CCCN1C(=O)c2ccccc2C1=O)(NC(C)=O)c1nnn(C)n1 (centres undefined)
1 | -2.7 | O=C(O)c1ccccc1NCc1cccnc1
0.61 | -0.26 | COc1cc(C2Nc3ccccc3NC3=C2C(=O)CC(c2ccc(OC)c(OC)c2)C3)ccc1O (centres undefined)

Ordered by value in KCNQ2 pot baseline (descending): some entries from above
KCNQ2 pot | KCNQ2 pot baseline | Molecule
0.08 | 0.42 | Cc1ccc(C(=O)C[n+]2cc(Br)cc(Br)c2)cc1[N+](=O)[O-]
0.92 | 0.08 | COc1ccc(CCNC(=O)CSc2n[nH]c(N)n2)cc1
0.34 | -0.06 | C=CCOC(=O)C1=C(C)NC(C)=C(C(=O)OCC=C)C1c1cn(-c2ccccc2)nc1-c1ccco1
1.2 | -0.43 | O=[N+]([O-])c1cccc(/C=C/c2nc[nH]c2[N+](=O)[O-])c1

High-throughput results from PubChem BioAssay.

Not all compounds are listed (hit frequency here may not be typical).
